# STAT3 binder = binds human STAT3 on microarray. P40763. Small molecule microarray, His-STAT3 binding, anti-His fluorescence. calls only. hit rate 0.2% among 17,000. AID 624138;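 active = compounds whose four printed spots each show fluorescence over background unusually high for their array block, chance value under 7%; compounds were printed on slides so no solution concentration is given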;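 also: about 2 pmol printed per array spot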
# Target sequence (P40763 whole entry, looked up): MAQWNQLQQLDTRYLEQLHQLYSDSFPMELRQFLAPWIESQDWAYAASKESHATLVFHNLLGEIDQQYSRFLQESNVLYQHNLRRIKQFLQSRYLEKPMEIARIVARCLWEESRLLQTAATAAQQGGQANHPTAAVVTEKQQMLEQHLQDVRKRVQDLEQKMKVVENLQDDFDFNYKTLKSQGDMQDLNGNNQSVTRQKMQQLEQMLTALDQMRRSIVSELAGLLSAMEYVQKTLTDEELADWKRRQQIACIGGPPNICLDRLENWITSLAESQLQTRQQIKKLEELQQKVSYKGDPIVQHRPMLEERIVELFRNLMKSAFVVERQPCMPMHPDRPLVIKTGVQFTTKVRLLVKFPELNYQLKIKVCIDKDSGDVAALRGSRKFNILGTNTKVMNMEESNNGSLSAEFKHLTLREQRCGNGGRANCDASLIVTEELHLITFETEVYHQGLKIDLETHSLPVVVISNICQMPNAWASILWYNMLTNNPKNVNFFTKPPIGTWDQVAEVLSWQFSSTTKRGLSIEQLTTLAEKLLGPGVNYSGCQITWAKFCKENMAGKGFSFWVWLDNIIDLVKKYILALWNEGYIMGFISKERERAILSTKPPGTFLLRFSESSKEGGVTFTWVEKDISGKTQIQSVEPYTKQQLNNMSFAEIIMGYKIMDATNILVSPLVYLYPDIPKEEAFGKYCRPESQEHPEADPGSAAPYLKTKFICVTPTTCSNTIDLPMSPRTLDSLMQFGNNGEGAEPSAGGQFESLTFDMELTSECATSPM
# ID4 binder = binds human ID4 protein on microarray | P47928 | small molecule microarray, Flag-ID4 binding, fluorescence F/B | calls only | hit rate 1.2% among 31,000;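 active = spot signal over background at p below 0.07 in all four prints; compounds were printed on slides so no solution concentration is given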;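 also: a binder raises fluorescence above local background on the spot; about 2 pmol printed per array spot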
# Target sequence (P47928 whole entry, looked up): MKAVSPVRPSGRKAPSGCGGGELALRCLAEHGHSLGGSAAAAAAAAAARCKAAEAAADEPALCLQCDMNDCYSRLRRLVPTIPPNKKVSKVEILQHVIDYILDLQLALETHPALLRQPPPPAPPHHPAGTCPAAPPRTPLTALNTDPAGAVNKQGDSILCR
# Myc binder = binders of human c-Myc. P01106. small molecule microarray, His-c-Myc binding, anti-His fluorescence. calls only. hit rate 1.5% among 17,000. AID 624141;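 active = spot fluorescence over background with P-value below 7% in all four replicate spots, showing protein binding; compounds were printed on slides so no solution concentration is given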;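 also: score is binary with 100 for all four spots passing and 0 otherwise; about 2 pmol printed per array spot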
# p53 mut binder = mutant p53 (human) binding; calls only; AID 624136; hit rate 0.4% among 17,000; small molecule microarray binding, anti-GST fluorescence;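 active = compounds whose four printed spots each glow above background more than chance allows, each with a p-value under 7%; compounds were printed on slides so no solution concentration is given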;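 also: about 2 pmol printed per array spot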
# Calls only; i = inactive; . = not tested or not shown; + = active, no number.
SMILES,STAT3 binder,ID4 binder,Myc binder,p53 mut binder
CC(=O)c1cccc(NC(=O)CN(C2CCCCC2)S(C)(=O)=O)c1,i,i,i,i
CCOC(=O)Cc1[nH]nc2c1C(C1CC=CCC1)C(C#N)=C(N)O2 (stereo not drawn),i,i,i,i
COc1ccc(S(=O)(=O)N(C)C[C@H]2Oc3ccc(NS(=O)(=O)c4cn(C)cn4)cc3CC(=O)N([C@H](C)CO)C[C@@H]2C)cc1,i,i,i,i
O=C(CSc1nc2sc3c(c2c(=O)[nH]1)CCCC3)Nc1ccccc1F,i,i,i,i
CCn1c(SCC(=O)c2ccc(Br)cc2)nnc1-c1cccc(N)c1,i,i,i,i
CCO[C@H]1OC(C(=O)NC2CC2)=C[C@@H](c2ccccc2)[C@@H]1CCCO,i,.,i,i
Cc1ccc(NC(=O)C(C)Sc2n[nH]c(C)n2)cc1 (stereo not drawn),i,i,i,i
C[C@H](CO)N1C[C@H](C)[C@H](CN(C)S(=O)(=O)c2ccc(F)cc2)Oc2ncc(/C=C/c3ccccc3)cc2C1=O,i,i,i,i
Cc1noc(C)c1S(=O)(=O)Nc1ccc2c(c1)CC(=O)N([C@H](C)CO)C[C@H](C)[C@H](CN(C)Cc1ccc(C(=O)O)cc1)O2,i,.,i,i
Cc1[nH]n(-c2nc3ccccc3[nH]2)c(=O)c1C1OC(=O)c2ccccc21 (stereo not drawn),i,i,i,i
CC(C)Cc1ccc(CN2CC[C@@H](NS(=O)(=O)c3ccccc3)C2)cc1,i,i,i,i
C[C@H]1CN([C@@H](C)CO)C(=O)c2cccc(NS(C)(=O)=O)c2O[C@H]1CN(C)Cc1ccccc1,i,i,i,i
C[C@@H]1CN([C@H](C)CO)C(=O)c2cc(NC(=O)c3ccncc3)ccc2O[C@@H](C)CCCCO[C@H]1CN(C)C,i,i,+,i
CC(C)NC(=O)N(C)C[C@H]1OCc2cn(nn2)CCCC(=O)N([C@H](C)CO)C[C@H]1C,i,i,i,i
C[C@@H]1CN([C@H](C)CO)C(=O)Cc2cc(NC(=O)Cc3cn(C)c4ccccc34)ccc2O[C@@H]1CN(C)C(=O)Nc1ccccc1,i,i,i,i
Cc1noc(C)c1S(=O)(=O)N(C)C[C@@H]1Oc2c(cccc2N(C)C)C(=O)N([C@H](C)CO)C[C@H]1C,i,i,i,i
C[C@H]1CN([C@@H](C)CO)C(=O)Cc2cc(NS(C)(=O)=O)ccc2O[C@H]1CN(C)S(=O)(=O)c1cccs1,i,i,i,i
COc1cc(OC)c(C(=O)/C=C/c2ccccc2)c(O)c1O,i,.,i,i
C[C@H]1CN([C@@H](C)CO)C(=O)c2cccc(NC(=O)NC3CCCCC3)c2O[C@@H]1CN(C)Cc1ccc2c(c1)OCO2,i,i,i,i
C[C@@H]1CN([C@H](C)CO)C(=O)CCCn2nncc2CO[C@@H]1CN(C)Cc1ccc(C(F)(F)F)cc1,i,i,i,i
Cc1noc(C)c1S(=O)(=O)Nc1cccc2c1O[C@@H](CN(C)C(=O)Nc1ccc(F)cc1)[C@@H](C)CN([C@@H](C)CO)C2=O,i,i,i,i
C[C@@H]1CN([C@@H](C)CO)C(=O)c2cc(NC(=O)Nc3ccc(C(F)(F)F)cc3)ccc2O[C@@H](C)CCCCO[C@H]1CN(C)S(=O)(=O)c1ccc(Cl)cc1,i,.,i,i
C[C@@H]1CN([C@@H](C)CO)C(=O)c2cc(NC(=O)CCCN(C)C)ccc2O[C@@H](C)CCCCO[C@@H]1CN(C)C,i,i,i,i
CN(Cc1ccccc1)C(=O)C(Cc1ccc2ccccc2c1)NC(=O)C1CCCN1C(=O)Nc1ccccc1[N+](=O)[O-] (stereo not drawn),i,i,i,i
COc1cc2c(cc1-c1coc3cc(O[C@@H]4O[C@H](CO)[C@@H](O)[C@H](O)[C@H]4O)ccc3c1=O)OCO2,i,i,i,i
# Next section:
SMILES,STAT3 binder,ID4 binder,Myc binder,p53 mut binder
C[C@H]1CCCCO[C@H](CN(C)C(=O)CCC(F)(F)F)[C@@H](C)CN([C@@H](C)CO)C(=O)c2cc(N(C)C)ccc2O1,i,i,i,i
C[C@@H]1CN([C@H](C)CO)C(=O)c2cccc(NC(=O)c3ccncc3)c2O[C@@H]1CN(C)C(=O)Nc1ccc(C(F)(F)F)cc1,i,i,i,i
Cc1cc(C(=O)CSc2nnnn2-c2ccccc2)c(C)n1-c1cc(F)ccc1F,i,i,i,i
C[C@H]1CCCCO[C@@H](CN(C)C(=O)c2ccncc2)[C@@H](C)CN([C@@H](C)CO)C(=O)c2cc(N(C)C)ccc2O1,i,i,i,i
CC1(C)CC[C@]2(C(=O)O[C@@H]3O[C@H](CO)[C@@H](O)[C@H](O)[C@H]3O)CC[C@]3(C)C(=CCC4[C@@]5(C)CC[C@H](O[C@@H]6O[C@H](C(=O)O)[C@@H](O)[C@H](O)[C@H]6O)[C@@](C)(CO)C5CC[C@]43C)C2C1 (stereo partly drawn),i,i,i,i
COc1cc(C2OC(c3cc(OC)c(OC)c(OC)c3)C(C)C2C)cc(OC)c1OC (stereo not drawn),i,i,i,i
Cc1cc2c(=O)n(C)c(SCC(=O)c3cc4ccccc4o3)nc2s1,i,i,i,i
C[C@@H]1CCCCO[C@@H](CN(C)C)[C@@H](C)CN([C@@H](C)CO)C(=O)c2cc(NC(=O)Nc3ccc(F)cc3)ccc2O1,i,i,i,i
C[C@@H]1CN([C@@H](C)CO)C(=O)c2cc(NC(=O)Nc3ccccc3)ccc2O[C@H]1CN(C)C(=O)NC1CCCCC1,i,i,i,i
CC1OC(OC2C(OC(=O)C34CCC(C)(C)CC3C3=CCC5C6(C)CCC(OC7OC(CO)C(OC8OC(C(=O)O)C(OC9OCC(O)C(O)C9O)C(O)C8O)C(O)C7O)C(C)(CO)C6CCC5(C)C3(C)CC4)OC(COC3OCC(O)C(O)C3O)C(O)C2O)C(O)C(O)C1O (stereo not drawn),i,i,i,i
COC(=O)N(C)C[C@@H]1OCc2cn(nn2)CCCC(=O)N([C@H](C)CO)C[C@H]1C,i,i,i,i
CC(C)NC(=O)N(C)C[C@H]1Oc2ccc(N(C)C)cc2CC(=O)N([C@@H](C)CO)C[C@H]1C,i,i,i,i
C[C@H]1CN([C@@H](C)CO)C(=O)Cc2cc(NS(=O)(=O)c3ccc(F)cc3)ccc2O[C@@H]1CN(C)Cc1ccc(-c2ccccc2)cc1,i,.,i,i
C[C@H](CO)N1C[C@H](C)[C@H](CN(C)Cc2ccc(C(F)(F)F)cc2)Oc2ccc(NS(=O)(=O)c3cn(C)cn3)cc2CC1=O,i,i,i,i
COc1ccc(OC2OC(COC3OCC(O)C(O)C3O)C(O)C(O)C2O)cc1OC (stereo not drawn),i,i,i,i
C[C@@H]1CN([C@H](C)CO)C(=O)Cc2cc(NC(=O)CCN3CCOCC3)ccc2O[C@@H]1CN(C)C(=O)Nc1ccc2c(c1)OCO2,i,i,i,i
O=C1CC(c2ccccc2)Oc2cc(O)cc(O)c21 (stereo not drawn),i,i,i,i
Cc1cccc(NC(=O)CN(c2ccc3c(c2)OCCO3)S(C)(=O)=O)c1,i,i,i,i
Cc1noc(C)c1NC(=O)Nc1cccc2c1O[C@@H](CN(C)C(=O)Nc1ccccc1)[C@H](C)CN([C@@H](C)CO)C2=O,i,.,i,i
CCCCCCCCC/C=C/CCCCC(=O)C1C(=O)CCC(O)C1=O (stereo not drawn),i,i,i,i
C[C@H](CO)N1C[C@H](C)[C@@H](CN(C)C(=O)NC2CCCCC2)Oc2ccc(N(C)C)cc2C1=O,i,i,i,i
Cc1ccc(CN2C(=O)N(c3ccccc3)C(=O)C2CC(=O)Nc2ccccc2)cc1 (stereo not drawn),i,i,i,i
O=C(C1=C[C@H](c2ccc(Br)cc2)C[C@H](OCCCCO)O1)N1CCN(Cc2ccc3c(c2)OCO3)CC1,i,i,i,i
Cc1noc(C)c1NC(=O)N(C)C[C@H]1Oc2c(NC(=O)Nc3ccc(C(F)(F)F)cc3)cccc2C(=O)N([C@H](C)CO)C[C@H]1C,i,i,i,i
Cn1nnnc1SCCNC/C=C/c1ccccc1,i,i,+,i

# In the list so far, 6 have a CF3 group:
SMILES,STAT3 binder,ID4 binder,Myc binder,p53 mut binder
C[C@@H]1CN([C@H](C)CO)C(=O)CCCn2nncc2CO[C@@H]1CN(C)Cc1ccc(C(F)(F)F)cc1,i,i,i,i
C[C@@H]1CN([C@@H](C)CO)C(=O)c2cc(NC(=O)Nc3ccc(C(F)(F)F)cc3)ccc2O[C@@H](C)CCCCO[C@H]1CN(C)S(=O)(=O)c1ccc(Cl)cc1,i,.,i,i
C[C@H]1CCCCO[C@H](CN(C)C(=O)CCC(F)(F)F)[C@@H](C)CN([C@@H](C)CO)C(=O)c2cc(N(C)C)ccc2O1,i,i,i,i
C[C@@H]1CN([C@H](C)CO)C(=O)c2cccc(NC(=O)c3ccncc3)c2O[C@@H]1CN(C)C(=O)Nc1ccc(C(F)(F)F)cc1,i,i,i,i
C[C@H](CO)N1C[C@H](C)[C@H](CN(C)Cc2ccc(C(F)(F)F)cc2)Oc2ccc(NS(=O)(=O)c3cn(C)cn3)cc2CC1=O,i,i,i,i
Cc1noc(C)c1NC(=O)N(C)C[C@H]1Oc2c(NC(=O)Nc3ccc(C(F)(F)F)cc3)cccc2C(=O)N([C@H](C)CO)C[C@H]1C,i,i,i,i

# The list goes on:
SMILES,STAT3 binder,ID4 binder,Myc binder,p53 mut binder
Cc1noc(C)c1NC(=O)Nc1cccc2c1O[C@H](CN(C)Cc1ccc(C(=O)O)cc1)[C@H](C)CN([C@H](C)CO)C2=O,i,i,i,i
COc1ccc(-c2nnc(SCc3csc(N)n3)n2C)cc1,i,i,i,i
Cc1noc(C)c1NC(=O)N(C)C[C@H]1Oc2c(NC(=O)c3cnccn3)cccc2C(=O)N([C@@H](C)CO)C[C@@H]1C,i,i,i,i
C[C@H](CO)N1C[C@H](C)[C@H](CN(C)Cc2ccncc2)Oc2ncc(Br)cc2C1=O,i,i,i,i
CN(C)c1nc(OCC(=O)Nc2ccc(Cl)cc2)nc(N(C)C)n1,i,i,i,i
CCOC(=O)c1sc(N2C(=O)C(=O)C(C(=O)c3ccc(C)cc3)C2c2ccc(C)o2)nc1C (stereo not drawn),i,i,i,i
C[C@@H]1CN([C@H](C)CO)C(=O)c2cccc(NC(=O)C3CCOCC3)c2O[C@H]1CN(C)Cc1ccncc1,i,i,i,i
Cc1c(NC(=O)Cn2ccc([N+](=O)[O-])n2)c(=O)n(-c2ccccc2)n1C,i,i,i,i
COc1ccc(CN(C)C[C@H]2Oc3ccc(NC(=O)C4CC4)cc3CC(=O)N([C@@H](C)CO)C[C@@H]2C)cc1,i,i,i,i
O=C1CC(N(Cc2ccco2)C(=O)Nc2ccc(F)cc2)C(=O)N1c1ccc(F)cc1 (stereo not drawn),i,i,i,i
COc1ccc(CN(C)C[C@@H]2Oc3c(NS(=O)(=O)c4c(C)noc4C)cccc3C(=O)N([C@H](C)CO)C[C@@H]2C)cc1,i,i,i,i
C[C@H](CO)N1C[C@H](C)[C@@H](CN(C)Cc2ccc(Cl)c(Cl)c2)Oc2ccc(NS(C)(=O)=O)cc2CC1=O,i,.,i,i
C[C@H]1CN([C@@H](C)CO)C(=O)Cc2cc(NC(=O)CCCN(C)C)ccc2O[C@H]1CN(C)S(=O)(=O)c1ccc(F)cc1,i,.,i,i
Cc1ccc(C(=O)N(CC(N)=O)CC(N)=O)cc1,i,i,i,i
C[C@@H]1CN([C@@H](C)CO)C(=O)CCCn2cc(nn2)CO[C@@H]1CN(C)Cc1ccccc1,i,i,i,i
CC(=O)O[C@@H]1CC[C@@]2(C)C(CC[C@]3(C)C2CC=C2C4CC(C)(C)CC[C@]4(C(=O)O)CC[C@]23C)C1(C)C (stereo partly drawn),i,i,i,i
O=C/C=C/c1ccc(-c2ccccc2)cc1,i,i,i,i
Cc1noc(C)c1NC(=O)N(C)C[C@@H]1Oc2c(NC(=O)C3CCOCC3)cccc2C(=O)N([C@H](C)CO)C[C@H]1C,i,i,i,i
COc1ccc(CN(C)C[C@H]2Oc3ccc(NC(=O)Cn4cnnn4)cc3CC(=O)N([C@H](C)CO)C[C@H]2C)cc1,i,i,i,i
Cc1noc(C)c1NC(=O)Nc1cccc2c1O[C@@H](CN(C)Cc1ccncc1)[C@@H](C)CN([C@@H](C)CO)C2=O,i,i,i,i
C[C@@H]1CCCCO[C@H](CN(C)C)[C@@H](C)CN([C@H](C)CO)C(=O)c2cc(NC(=O)C3CCCCC3)ccc2O1,i,i,i,i
CC(C)NC(=O)Nc1ccc2c(c1)C(=O)N([C@@H](C)CO)C[C@H](C)[C@H](CN(C)C)OCCCC[C@H](C)O2,i,i,i,i
Cc1noc(C)c1NC(=O)N(C)C[C@H]1Oc2c(NC(=O)C3CCOCC3)cccc2C(=O)N([C@@H](C)CO)C[C@@H]1C,i,i,i,i
C[C@@H]1CN([C@H](C)CO)C(=O)Cc2cc(NC(=O)Cc3cn(C)c4ccccc34)ccc2O[C@@H]1CN(C)C(=O)NC1CCCCC1,i,i,i,i
Cc1noc(C)c1NC(=O)N(C)C[C@H]1Oc2c(cccc2N(C)C)C(=O)N([C@H](C)CO)C[C@H]1C,i,i,i,i
CCO[C@H]1OC(C(=O)NC2CC2)=C[C@@H](C)[C@@H]1CCCO,i,i,i,i
O=C(NCc1ccc(F)cc1)[C@H]1C[C@H]2C(=O)NCC(=O)N2[C@H]1c1ccc(O)cc1,i,i,i,i
CCc1cc2c(=O)n(-c3ccccc3)c(SCC(=O)O)nc2s1,i,i,i,i

# High-throughput results as filed in PubChem.

# Only part of the results is shown (hit frequency here may not be typical).
